AmpC nodet inh = inhibitors of E. coli AmpC beta-lactamase without detergent; Potency, µM (highest dose often 28.7 µM), inactives show top-dose activity change, negative = inhibition; actives 1.8% (n = 71,000); P00811; AmpC nitrocefin hydrolysis, absorbance 480 nm, no detergent; potencies from a single point are estimates; active = falling curve, for most hits resting on a single point; inconclusive = weak or doubtful change; inactive = flat or rising curve; note: % of control where 0% means no effect; about half of the hits show no inhibition at the top dose; a quarter of the inactives give rising signals
Target sequence (P00811 whole entry, looked up): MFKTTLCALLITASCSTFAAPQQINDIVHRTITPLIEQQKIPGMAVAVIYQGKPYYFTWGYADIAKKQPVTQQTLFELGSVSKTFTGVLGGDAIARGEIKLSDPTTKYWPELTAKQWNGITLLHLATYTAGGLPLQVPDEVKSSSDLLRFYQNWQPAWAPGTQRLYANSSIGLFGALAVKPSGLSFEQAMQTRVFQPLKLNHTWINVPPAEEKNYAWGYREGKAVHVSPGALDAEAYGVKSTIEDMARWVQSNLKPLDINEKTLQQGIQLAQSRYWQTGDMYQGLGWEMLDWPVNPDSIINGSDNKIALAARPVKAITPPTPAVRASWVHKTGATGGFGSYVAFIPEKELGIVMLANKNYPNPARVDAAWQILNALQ
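Enzyme, pH 7.0 phosphate. Compound titrations were pre-incubated with AmpC for 15 min at room temperature before nitrocefin (stock 800 uM) addition; product formation was recorded at 480 nm every 20 s for 4 min.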
An asterisk follows results filed as active; [ ] = remark or other dose. Potency is the fitted concentration of half-maximal effect. These rows are one share of the data. The share of hits here may be higher or lower than overall.

SMILES	AmpC nodet inh
CCOc1ccccc1N(CC(=O)Nc1ccccc1C(=O)NCc1ccco1)S(C)(=O)=O	24%
Cc1cnc(CNc2nc(-c3ccccc3Cl)nc3ccccc23)cn1	22%
O=C(CCc1ccccc1)NC1CCSC1=O (stereo not drawn)	1%
CCCCCC1NC(=O)NC1CCCCCC(=O)O (stereo not drawn)	7%
CCCCNC(NCCCC)=C(S(=O)(=O)CC)S(=O)(=O)CC	14%
CC(C)c1nc(N2CCN(C(=O)c3ccco3)CC2)c2c3c(sc2n1)CCCC3	97%
CC12CCC(=O)N1c1ccccc1C(=O)N2c1ccccc1 (stereo not drawn)	-8%
NC(N)=NC(N)=Nc1ccc(C(=O)O)cc1	-6%[5.75 µM]
N#CN=C1SCCS1	-13%
Cc1oc(-c2ccc3c(c2)OCCO3)cc1C(=O)O	-11%
CCC/C=C(\CCC)C(NC(=O)c1ccccc1)c1ccc(C(=O)OC)cc1 (stereo not drawn)	3%
Cn1c(=O)oc2cc(S(=O)(=O)NCCCN3CCCC3=O)ccc21	2%
CN(C)c1ccc(-c2ccncc2)cc1	-3%
CCOC(=O)Cn1nc(-c2ccc(Cl)cc2)cc1N	17%
c1cncc(CNc2ccnc(-c3cccnc3)n2)c1	-2%
C[N+](C)(C)CCOC(N)=O	-3%[12.8 µM]
COC(=O)N1C2(C=CC1(C)C(=O)NCc1ccc(N(C)C)cc1)CCCCC2 (stereo not drawn)	70%
CCOc1cccc2cc(C(=O)N3CCN(C/C=C/c4ccccc4)CC3)c(=O)oc12	110%
O=C(CSc1nnc(-c2ccccn2)n1-c1ccccc1)Nc1ccc2c(c1)OCO2	-2%
CCCOC(=O)c1ccc(NS(=O)(=O)c2cccs2)cc1	-14%
COc1cc(-c2noc(CCC(=O)Nc3cccnc3)n2)cc(OC)c1OC	48%
O=C(CC1SC(N2CCCCC2)=NC1=O)Nc1cccc(C(=O)O)c1 (stereo not drawn)	-7%
CCC(=O)N1c2ccc(S(=O)(=O)CCC(=O)N3CCC4(CC3)OCCO4)cc2CC1C (stereo not drawn)	32%
CCN(Cc1cc2cc(OC)ccc2[nH]c1=O)C(=O)Cc1ccc(OC)cc1	26%
O=C(CCN1C(=O)C2C3C=CC(C3)C2C1=O)N1CCN(c2ccccc2F)CC1 (stereo not drawn)	32%

Retrieved one by one from the list above, 2 records:
SMILES	AmpC nodet inh
CCC/C=C(\CCC)C(NC(=O)c1ccccc1)c1ccc(C(=O)OC)cc1 (stereo not drawn)	3%
c1cncc(CNc2ccnc(-c3cccnc3)n2)c1	-2%

(further entries)
SMILES	AmpC nodet inh
Cc1cc(C(=O)CSc2nnc(-c3ccccc3)n2C)c(C)n1C	18%
Cc1cc(C)c2c(n1)nn1c(NCCN3CCOCC3)cc(C)nc21	59%
Cc1nc(N2CCN(c3ccccc3)CC2)c2c3c(sc2n1)CCC3	31%
COc1ccc(C)cc1NC(=O)c1ccc2c(c1)OCO2	-12%
COc1ccc(N2CCN(C(=O)c3cn(C4CCCC4)c(=O)c4c3c3ccccc3n4C)CC2)cc1	91%
CCOC(=O)c1c(C)[nH]c(C(=O)Cn2nnc(-c3ccccc3Cl)n2)c1C	20%
CCc1ccc(NC(=O)Cn2c(SC)nc3ccccc32)cc1	47%
C=CCCCC	-15%
CCOc1ccccc1-n1c(SCC(=O)N2CCCC2)nnc1-c1ccoc1C	58%
COC(=O)c1cc(OC)c(OC)cc1NC(=O)c1ccoc1C	9%
CC1CCN(CCc2nc3cc(NS(=O)(=O)c4ccc(F)cc4)ccc3n2C)CC1	-3%
CCn1cc(C(=O)N(CCCN2CCOCC2)Cc2ccco2)c(=O)c2ccc(C)nc21	21%
Cc1ccc(S(=O)(=O)NCC(=O)N(CC(=O)NC2CCCC2)c2ccc3c(c2)OCCO3)cc1	12%
Cn1c(SCC(N)=O)nnc1C1CCN(C(=O)NC2CCCCC2)CC1	-5%
Cc1cc(Cl)c(S(=O)(=O)Nc2ccc3c(c2)OCO3)cc1OCC(N)=O	6%
NC(=O)CSc1nnc(-c2cccnc2)n1CCc1ccccc1	3%
N=C(N)S/C=C\C(=O)O	-1%
Cc1csc(NC(=O)C2C3C=CC(O3)C2C(=O)O)n1 (stereo not drawn)	-8%
Cc1cc(C)c2[nH]c(=O)c(CN(CC3CCCO3)C(=O)c3cnccn3)cc2c1 (stereo not drawn)	27%
Cc1csc(SCC(=O)N2CCN(S(=O)(=O)c3ccccc3)CC2)n1	24%
O=S(=O)(NCc1cn2ccsc2n1)c1ccc2c(c1)OCCO2	-10%
CCC(C)(C(=O)NC1CCCC1)N(Cc1cccs1)C(=O)Cc1cccs1 (stereo not drawn)	43%
CCOC(=O)c1ccc(NC(=O)CSc2nnc(CNC(=O)c3ccccc3F)o2)cc1	25%
CN1CCN(CC(=O)N2c3ccccc3C(=O)Nc3cccnc32)CC1	23%
O=C(Nc1ccc2nsnc2c1)c1cccs1	-17%

Copied from the list:
CCOC(=O)c1c(C)[nH]c(C(=O)Cn2nnc(-c3ccccc3Cl)n2)c1C in AmpC nodet inh has 20%
C=CCCCC in AmpC nodet inh has -15%
CCn1cc(C(=O)N(CCCN2CCOCC2)Cc2ccco2)c(=O)c2ccc(C)nc21 in AmpC nodet inh has 21%
Cc1csc(SCC(=O)N2CCN(S(=O)(=O)c3ccccc3)CC2)n1 in AmpC nodet inh has 24%
CCc1ccc(NC(=O)Cn2c(SC)nc3ccccc32)cc1 in AmpC nodet inh has 47%

Going on with the list:
SMILES	AmpC nodet inh
N#Cc1c(C(F)(F)F)cc(-c2ccco2)nc1SCc1ccccn1	18%
CCOCCO	0%
CCCn1c(SCC(=O)NC(C)(C)C)nnc1C(C)C	1%
Cc1sc2nc(SCC(=O)N3CCCC3)[nH]c(=O)c2c1C	44%
N#CCCn1ccc(NC(=O)c2ccc(Cl)cc2)n1	-7%
CCC(C)C(=O)Nc1nnc(-c2cccs2)s1 (stereo not drawn)	3%
CCOC(=O)c1c(NC(=O)OC)sc(C(=O)N(CC)CC)c1C	54%
COc1ccc(-c2cc3ccccc3n2CC(O)CN2CCN(CCO)CC2)cc1 (stereo not drawn)	117%
COc1cccc(-c2nc(CS(=O)(=O)CC(=O)NCc3ccc(Cl)cc3)c(C)o2)c1	14%
CCOC(=O)c1ccc(NC(=O)C(C)NS(=O)(=O)c2ccc(OC)cc2)cc1 (stereo not drawn)	-9%
Cn1c2ccccc2c2c(C(=O)N3CCN(c4ccccn4)CC3)cn(C3CCCC3)c(=O)c21	108%
Cc1ccc(NC(=O)COC(=O)Cn2c(C)csc2=O)cc1C	7%
O=C(O)c1csc(Br)c1Br	-14%
CCSc1nnc(NC(=O)c2ccc3c(c2)OCO3)s1	61%
CC(Oc1ccccc1)C(=O)Nc1ccc(S(=O)(=O)NCC2CCCO2)cc1 (stereo not drawn)	11%
COc1cc(S(=O)(=O)N2CCN(C)CC2)ccc1Cl	-3%
O=C(NCCC1=CCCCC1)C1CCN(S(=O)(=O)c2cccc3cccnc23)CC1	36%
Cc1ccc(-n2c(SCC(=O)N3CCOCC3)nnc2-c2cccnc2)cc1	10%
COCn1c(-c2ccc(OC)c(OC)c2)nc2ccccc21	28%
Cc1nn(-c2ccccc2)c(Cl)c1C1C(C#N)=C(N)OC2=C1C(=O)CC(C)(C)C2 (stereo not drawn)	35%
COc1cc(C2C(C#N)=C(N)Oc3c2oc(CO)cc3=O)ccc1OC(C)C (stereo not drawn)	-2%
Nc1ccc2c(c1)COc1ccccc1O2	-3%
CCN(CC)S(=O)(=O)c1ccc(-c2nnc(SCC(=O)N3CCOCC3)o2)cc1	49%
CCc1nc(SCc2cc(Cl)ccc2OC)n[nH]1	-3%
COc1cccc2sc(NC(=O)c3ccc(S(=O)(=O)N4CCOCC4)cc3)nc12	133%
Additional compounds:
SMILES	AmpC nodet inh
CCCCC(C=O)CC (stereo not drawn)	12%
Cc1ccc(C2C(C(=O)c3cccs3)=C(O)C(=O)N2CCN2CCOCC2)o1 (stereo not drawn)	-6%
Cc1ccc(-c2nnn(CCC(=O)N3CCCCC3C)n2)cc1 (stereo not drawn)	63%
COc1ccc(C(=O)NCC(c2cccnc2)N2CCN(c3ccccc3OC)CC2)cc1OC (stereo not drawn)	111%
O=C(Nc1nnc(COc2ccc(F)cc2)s1)c1cccs1	-9%
O=C(c1ccco1)N1CCN(C(c2ccccc2Cl)c2nnnn2Cc2cccs2)CC1 (stereo not drawn)	80%
Cc1nn(-c2ccccc2)c2sc(C(=O)OCC(=O)N3CCCCC3)cc12	90%
N[C@@H](Cc1cccnn1)C(=O)O	8%[5.75 µM]
CC(NCc1ccco1)C(=O)N1CCc2ccccc2C1 (stereo not drawn)	-6%
CCOc1ccccc1NC(=O)CN(c1nccs1)S(=O)(=O)c1ccc(N)cc1	-2%
CC(=O)NCCOC(=O)Nc1cccnc1	-2%
COc1c(F)c(F)c(C(=O)Nc2ccc3oc(-c4ccncc4)nc3c2)c(F)c1F	6%
CCn1c(SCC(=O)NCc2ccco2)nc2c(c1=O)SC(C)C2 (stereo not drawn)	15%
Cc1ccc(S(=O)(=O)N2CCOCC2)cc1C(=O)NCc1cn2ccsc2n1	-2%
Cc1ccc2nc(C(F)OC(F)(F)F)[nH]c2c1 (stereo not drawn)	-2%
COc1ccc(NC(=O)c2cc(OC)c(OC)cc2OC)c(S(=O)(=O)N2CCOCC2)c1	47%
O=C1CC(Sc2nnc(-c3ccccc3O)o2)C(=O)N1c1ccccc1 (stereo not drawn)	0%
c1nc(NCC2(N3CCOCC3)CCCCC2)c2ccsc2n1	4%
COC(=O)[C@@]1(Cc2ccc(OC)cc2)[C@H]2c3cc(C(=O)N4CCCC4)n(Cc4ccc(S(C)(=O)=O)cc4)c3C[C@H]2CN1C(=O)c1ccccc1	178%
C[C@H](CCC(=O)O)[C@H]1CC[C@@H]2[C@H]3[C@@H](C[C@@H](O)[C@]21C)[C@]1(C)CC[C@H](O)C[C@@H]1C[C@@H]3O	31%[5.75 µM]
CC(=O)NS(=O)(=O)c1ccc(NC(=O)c2ccccc2F)cc1	4%
CCCN1CCc2cc(O)cc3c2[C@H]1Cc1ccc(O)c(O)c1-3	-2%
O=C(NCc1cccc(Cl)c1)c1ccc2c(c1)OCO2	-14%
Nn1c(SCC(=O)Nc2ccc(F)cc2)nnc1C1CCCCC1	8%
N#CCC(=O)Nc1sc2c(c1C(N)=O)CCCC2	-1%

A run of entries from further up, as a working copy:
SMILES	AmpC nodet inh
CCOC(=O)c1c(C)[nH]c(C(=O)Cn2nnc(-c3ccccc3Cl)n2)c1C	20%
CCc1ccc(NC(=O)Cn2c(SC)nc3ccccc32)cc1	47%
C=CCCCC	-15%
CCOc1ccccc1-n1c(SCC(=O)N2CCCC2)nnc1-c1ccoc1C	58%
COC(=O)c1cc(OC)c(OC)cc1NC(=O)c1ccoc1C	9%
CC1CCN(CCc2nc3cc(NS(=O)(=O)c4ccc(F)cc4)ccc3n2C)CC1	-3%

Further records
SMILES	AmpC nodet inh
Cc1ccc(Nc2nc(OC(C(F)(F)F)C(F)(F)F)nc(N3CCOCC3)n2)cc1	25%
CCc1nc(N2CCCC(C)C2)c2oc3ccccc3c2n1 (stereo not drawn)	53%
COC(=O)c1c(C)cc(OC(C)=O)c(C)c1OC(C)=O	0%
O=C(N1CCCC1)n1c(Cc2ccccc2)nc2ccccc21	22%
O=C(c1ccncc1)N1CCC2(CCN(Cc3cc(C(F)(F)F)cc(C(F)(F)F)c3)CC2)CC1	90%
COc1cccc(Oc2nc3ncn(Cc4ccccc4)c3c(=O)n2C)c1	13%
CCc1ccc(-c2nnn(CCC(=O)OC)n2)cc1	43%
COC(=O)c1cc(COc2ccc3oc(C)c(C(=O)OC)c3c2)c(C)o1	110%
CS(=O)(=O)N1CCN(C(=O)Cc2cccs2)CC1	-11%
COc1ccc2[nH]c(=O)c(CN(Cc3cccs3)Cc3nnnn3C(C)(C)C)cc2c1	61%
CC(C)CC(NS(=O)(=O)c1ccc2c(c1)oc(=O)n2C)C(=O)NC1CCCc2ccccc21 (stereo not drawn)	4µM*[single pt active]
Cc1cc(NC(=O)CC2CCCC2)n(-c2nc3ccccc3[nH]2)n1	8%
Cc1ccc(-c2nc(CS(=O)CC(=O)NCCN3CCCC3)c(C)o2)cc1 (stereo not drawn)	4µM*[single pt active]
CCOC(=O)c1ccccc1NC(=O)CSc1nnc(COc2ccccc2)n1CC	78%
c1ccc(C2CC(c3cccs3)n3nnnc3N2)cc1 (stereo not drawn)	-9%
Cc1cc(O)c(C(C)C)cc1NS(=O)(=O)c1ccccc1	-21%
CCN1CCN(S(=O)(=O)Cc2ccccc2)CC1	-18%
CCCc1cc(=O)[nH]c(SCC(=O)N2CCN(c3ccccc3)CC2)n1	18%
COc1cc2c(cc1OC)-c1c(OC)c(OC)cc3ccnc(c13)C2=O	74%
CCNc1nc(NC(C)C)nc(Nn2cnnc2)n1	6%
O=C(Cn1cnc2ccccc2c1=O)NC1CCCc2ccccc21 (stereo not drawn)	18%
CN(C)C(=O)N1CCCC(C(=O)NCc2ccc(F)cc2Cl)C1 (stereo not drawn)	2%
C[C@@H](C[N+](C)(C)C)OC(N)=O	10%[12.8 µM]
Cc1noc(C)c1-c1nc(N2CCNCC2)c2ccccc2n1	28%
O=C(NCCCc1ccccc1)C1CCN(c2nnc(-n3cccc3)s2)CC1	63%
CCNC(=O)NC1(C(=O)Nc2ccc3c(c2)CCC3)CCCCC1	12%
CCOC(=O)c1ccccc1NC(=O)CN(c1ccccc1)S(=O)(=O)N(C)C	42%
Cc1nc2sc(-c3ccccc3)cc2c(=O)n1-n1cccc1	10%
COC(=O)C1(Cc2ccccc2)C2c3cc(C(=O)N4CCCC4)n(Cc4ccc(OC(F)(F)F)cc4)c3CC2CN1C(=O)c1ccccc1 (stereo not drawn)	94%

Assay outcomes deposited in PubChem by National Center for Advancing Translational Sciences (NCATS).
